Source: PubChem
FGF22 binding: binders of human FGF22 protein, primary screen, FGF22 synaptogenesis inhibitor project, biophysical, thermal shift, single point | Fibroblast growth factor 22 (Homo sapiens), Q9HCT0 | recombinant FGF22 thermal shift, SYPRO orange fluorescence; percent of sucrose octasulfate shift, DMSO zero | calls only at 9.99 µM | 340,000 tested, 1.5% active;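 active = melting point raised past a set limit in the mean and every replicate; inconclusive = no clear call; three in four hits are not shown here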
Target sequence (Q9HCT0 whole entry, looked up): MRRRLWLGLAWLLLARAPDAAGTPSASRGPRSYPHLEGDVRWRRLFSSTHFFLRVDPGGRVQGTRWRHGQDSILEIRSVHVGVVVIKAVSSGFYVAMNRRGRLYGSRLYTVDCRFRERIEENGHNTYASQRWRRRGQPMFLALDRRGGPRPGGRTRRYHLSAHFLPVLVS
MLL AF4-AF9 inh: inhibitors of AF4 peptide binding to AF9, primary screen, biochemical, AlphaScreen, biotin-AF4 peptide, FLAG-AF9, single point. AID 651704, 2012. Protein AF-9 (Homo sapiens), P42568. inhibition, % at 10 µM. 350,000 tested, 0.47% active;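 active = every replicate reaching a set inhibition limit, whatever the replicate mean, cut at about 25% in these data; inconclusive = mean inhibition reaches that limit but some replicates miss it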;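 note: 0% = plate neutral control median and 100% = total signal loss; the record names both 10 and 1 µM as test concentration; the first replicate is given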
Target sequence (P42568 whole entry, looked up): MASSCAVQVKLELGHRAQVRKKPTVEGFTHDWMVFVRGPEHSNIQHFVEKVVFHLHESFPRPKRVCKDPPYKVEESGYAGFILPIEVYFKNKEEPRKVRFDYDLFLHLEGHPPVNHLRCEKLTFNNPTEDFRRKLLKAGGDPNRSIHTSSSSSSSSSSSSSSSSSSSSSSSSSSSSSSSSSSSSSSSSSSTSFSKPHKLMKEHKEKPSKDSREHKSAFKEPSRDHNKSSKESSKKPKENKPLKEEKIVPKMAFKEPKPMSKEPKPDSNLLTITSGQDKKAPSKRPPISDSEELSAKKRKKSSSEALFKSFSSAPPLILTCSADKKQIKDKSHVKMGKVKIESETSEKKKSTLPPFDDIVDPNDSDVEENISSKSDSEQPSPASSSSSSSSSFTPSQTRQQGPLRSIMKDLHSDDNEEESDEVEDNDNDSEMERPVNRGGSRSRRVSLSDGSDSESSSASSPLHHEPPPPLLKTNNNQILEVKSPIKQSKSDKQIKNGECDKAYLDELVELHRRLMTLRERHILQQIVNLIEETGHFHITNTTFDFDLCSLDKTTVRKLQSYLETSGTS
A1 inh: caspase 3/7 activation in MEF A1-2A-BIM cells, primary screen, A1 inhibitor project, cell-based, luminescence, HTS; Caspase-Glo 3/7 luminescence, 3 h; percent of clofoctol response, vehicle zero; caspase activation, % (no concentration beside the values); 330,000 tested, 0.066% active; AID 2462, 2010;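 active = over half of replicate activation scores above 10%, or exactly half above 10 with the replicate mean above 10; inconclusive = replicate mean below 10 yet half the replicates above 10; inactive = over half of replicates below 10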;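 note: wells of about 30 µL received 50 nL stock; many hits fall short of the cut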
UCH37 DUB inh: inhibitors of human UCH37 deubiquitinase, primary screen, biochemical, Ub-AMC cleavage, fluorescence | purified proteasome/UCH37 | 330,000 tested, 0.33% active | AID 588478, 2011 | Ubiquitin carboxyl-terminal hydrolase isozyme L5 (Homo sapiens), Q9Y5K5 | inhibition, % (concentration not given with the values);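 active = mean of two replicates above 20%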;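 note: 0% = compound-free wells with enzyme and 100% = wells lacking proteasome; stock transfer was 100 nL into about 20 µL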
Target sequence (Q9Y5K5 whole entry, looked up): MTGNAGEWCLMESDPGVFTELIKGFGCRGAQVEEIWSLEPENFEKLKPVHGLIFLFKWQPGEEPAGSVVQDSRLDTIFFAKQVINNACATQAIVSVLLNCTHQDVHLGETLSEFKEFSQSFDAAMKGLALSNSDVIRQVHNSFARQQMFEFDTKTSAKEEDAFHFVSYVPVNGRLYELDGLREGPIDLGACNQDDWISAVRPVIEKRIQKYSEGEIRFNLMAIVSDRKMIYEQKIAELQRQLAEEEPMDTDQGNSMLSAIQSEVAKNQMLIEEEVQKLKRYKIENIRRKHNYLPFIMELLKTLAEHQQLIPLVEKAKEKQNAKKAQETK
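Test system – human UCH37 enzyme supplied as purified proteasome complex · Incubation – 30 min preincubation with enzyme, 25 min cleavage at room temperature · Detection – AMC fluorescence from Ub-AMC cleavage, excitation 355 nm, emission 460 nm · Benchmarks – no-proteasome wells (full inhibition) and compound-free wells (no inhibition)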
rRNA inh HTS: reduced GFP signal of wild-type E. coli, primary screen, bacterial rRNA inhibitor project, GFP/RFP fluorescence, OD600, single point | 350,000 tested, 1.6% active | GFP signal change (wild-type ribosome), % (no concentration beside the values) | E. coli WT GFP vs humanized-ribosome RFP mutants, 24 h; stronger effect = lower value; DMSO median 0, no signal -100;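 active = significant combined selectivity score with lowered wild-type GFP, culture density cut under 30%, mutant RFP and density less affected; inactive = any of these conditions unmet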; note: one replicate is shown; some compounds called inactive have numbers as strong as hits
Beta apoptosis: inhibitors of cytokine-induced beta cell apoptosis, primary screen, luminescence. protection from apoptosis, % (no concentration beside the values). 300,000 tested, 0.8% active. INS-1E cytokine-induced death, ATP luminescence, 48 h; percent of positive-control rescue, neutral wells zero. AID 435005, 2010;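 active = all replicates at 75% or more, or half of them and the mean; inconclusive = half reach 75% but not the mean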;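 note: 0% = cytokine-treated negative control wells and 100% = positive control rescue; higher means more ATP so stronger rescue from cytokine killing; wells of about 40 µL received 100 nL stock; the first replicate is given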
E coli growth: E. coli growth inhibition, primary screen, OD600 | AID 1053175, 2014 | Escherichia coli growth, 23 h; stronger effect = lower value | OD600 absorbance (concentration not given with the values) | 330,000 tested, 0.21% active;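 active = OD600 absorbance below the run mean of sample wells minus 3.6 SD, in any replicate, cut at about 0.56 in these data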;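 note: stock transfer was 300 nL into about 60 µL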
T cruzi repl: inhibitors of intracellular T. cruzi growth, primary screen, luminescence, NIH3T3 host cells | T. cruzi beta-gal in NIH3T3, 90 h | inhibition, % (test concentration not listed) | 300,000 tested, 1.4% active | AID 1885, 2009;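 active = mean inhibition across valid replicates above about 55%, limit read from the data; inconclusive = mean below that limit but half or more replicates reach it; inactive = mean below it, under half of replicates reach it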;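 note: signal also drops with host cell toxicity which is not excluded here; 0% = plate median of DMSO wells and 100% = zero luminescence signal; higher percent means less beta-gal luminescence so fewer parasites; stock transfer was 50 nL into about 50 µL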
rRNA inh HTS OD600: second read-out of rRNA inh HTS, no call of its own (marks repeat the call); OD600 change, %; measured here: OD600 growth;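 optical density of the mix in the first replicate; 0 = DMSO median and -100 = no signal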
rRNA inh HTS RFP: further read-out of rRNA inh HTS, marked with its call; RFP signal change, %; measured here: RFP humanized mutant strains;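 first replicate; 0 = DMSO median and -100 = no signal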
Starred values were filed as active, the others as inactive; i = inactive; ? = inconclusive; / = no result given. An excerpt; count on the stated rates, not on these rows.

Each structure is followed by: FGF22 binding	MLL AF4-AF9 inh	A1 inh	UCH37 DUB inh	rRNA inh HTS	rRNA inh HTS OD600	rRNA inh HTS RFP	Beta apoptosis	E coli growth	T cruzi repl
> CCOc1cc(C(=O)NCc2ccccc2)ccc1OCC(=O)N1CCOCC1
  i	-0.2	-0.9	1.6	13.4	12.3	3.7	1.9	0.699	-0.7
> Cc1ccc(S(=O)(=O)N2CCN(c3ccc4nnc(-c5ccccc5)n4n3)CC2)cc1
  i	-0.7	/	1.9	4.5	7.7	-3.4	/	0.771	/
> CCN(CC)S(=O)(=O)c1ccc(Cl)c(C(=O)NC)c1
  /	/	0.3	1.4	/	/	/	-3.5	0.703	-2.0
> O=C(Nc1ccc(NC(=O)C2CCCCC2)nc1)c1ccccn1
  i	-2.8	-4.7	2.2	9.3	23.6	18.3	0.6	0.644	0.4
> CC(C)N(C(=O)CSc1nc2ccccc2n1Cc1ccc(F)cc1)C(C)C
  /	/	0.0	4.6	/	/	/	28.8	0.701	9.4
> O=C(Nc1ccc(S(=O)(=O)NCc2ccccc2)cc1)c1ccc(Br)o1
  /	/	-0.5	1.8	/	/	/	16.8	0.748	/
> COc1ccccc1NC(=O)Nc1ccc2[nH]c(=O)[nH]c2c1
  /	-0.8	1.4	-0.1	6.3	1.7	-2.3	-4.1	0.689	-12.4
> O=C(N=C1SC2CS(=O)(=O)CC2N1Cc1ccc(Cl)cc1)C1CC1 (centres undefined)
  i	-3.5	0.8	1.6	9.2	8.3	0.7	0.3	0.656	6.9
> CC(C)(C)Cc1nnc(NC(=O)CSc2ccccc2)s1
  i	-3.8	0.0	0.5	7.1	10.3	4.2	/	0.723	-2.3
> CC(OC(=O)c1ccc([N+](=O)[O-])s1)C(=O)NC1CCCCC1C (centres undefined)
  i	-1.0	1.3	22.6*	/	/	/	4.7	0.638	/
> Cc1c(Cl)c([N+](=O)[O-])nn1CC(=O)N1CCN(C23CC4CC(CC(C4)C2)C3)CC1
  i	-6.1	-0.4	7.3	-8.9	0.1	0.8	-0.6	0.694	18.8
> O=C(CCNC(=O)c1ccccc1Cl)NCCC1=CCCCC1
  i	1.7	-0.1	3.9	4.7	3.7	-2.7	/	0.65	3.4
> Cc1cccc(NC(=O)CN2CCN(C(=O)CN3C(=O)NC4(CC(C)CC(C)(C)C4)C3=O)CC2)c1C (centres undefined)
  i	0.0	/	3.0	9.3	15.7	-3.9	/	0.706	/
> Cc1ccccc1C(=O)c1cccn1CC(=O)NCCN1CCN(c2cccc(C)c2C)CC1
  /	/	1.1	3.7	/	/	/	10.7	0.688	18.4
> O=C(NCc1ccccc1Cl)c1cnn2cccnc12
  /	/	0.3	-18.2	/	/	/	-6.7	0.781	0.2
> NC(=O)NC(c1ccccc1)c1ccccc1
  i	-4.0	0.3	4.5	7.3	3.7	-3.5	5.9	0.654	8.3
> COc1cccc(-c2cc(C(=O)Nc3ccncc3)c3ccccc3n2)c1
  i	3.0	1.9	-0.4	-35.5	-53.6	-0.6	15.4	0.655	47.8
> CN(c1ccc(OCC(=O)OCC(=O)Nc2ccc(OC(F)F)cc2)cc1)S(=O)(=O)c1cccs1
  i	-3.4	1.0	1.5	-2.5	-8.6	2.1	-5.2	0.667	/
> CCN(CC)S(=O)(=O)c1cccc(C(=O)Nc2cc(C)cc(C)c2)c1
  /	/	1.8	2.5	/	/	/	/	0.665	0.4
> COc1ccc(CNC(=O)CN2C(=O)NC3(CCCCCC3)C2=O)cc1OC
  /	0.4	?	-4.1	12.9	8.1	1.3	-1.7	0.637	/
> CCC1(CC)C(=O)C2=C3C1[C@H](C(=O)OC)C=C(C(=O)OC)C[C@H]3[C@H]1C(=O)N(CC(=O)OC)C(=O)[C@H]1[C@H]2C (some centres undefined)
  i	-1.4	0.3	1.1	/	/	/	-4.7	/	-7.1
> O=C(Nc1ccc2c(c1)OCCO2)c1cc2sccc2n1Cc1ccccc1
  /	/	0.6	-0.4	/	/	/	4.4	0.767	30.1
> O=C(/C=C/c1ccc(Cl)cc1)Nc1ccc(Br)cn1
  i	-2.4	0.0	-0.9	12.9	9.1	-2.8	3.3	0.73	-13.8
> COC(=O)CC(NC(=O)Nc1ccc(C)cc1)c1cccc([N+](=O)[O-])c1 (centres undefined)
  /	2.1	1.1	1.1	10.3	0.4	-1.6	-2.4	0.676	-3.8
> CCOc1nc(Nc2ccc(OC)cc2)nc(OCC)n1
  /	/	-0.3	2.9	/	/	/	2.3	0.71	1.7
> Cc1ccc(S(=O)(=O)c2c(C)cc(C)[nH]c2=O)cc1
  i	-1.1	0.2	-1.7	1.2	10.7	0.5	-4.6	0.683	-3.4
> CC(C)OP(=O)(OC(C)C)C(NC(=O)c1ccccc1)C(N)=O (centres undefined)
  i	-0.6	-0.4	2.9	0.9	-3.9	1.4	1.6	0.704	0.2
> CCCn1c(CNc2ccccc2O)nc2ccccc21
  i	-17.9	-0.1	1.8	-13.3	-20.8	15.7	-2.4	0.638	-19.0
> Cc1ccn2cc(C(=O)Nc3ccc4c(c3)OCCO4)nc2c1
  /	/	-1.4	3.1	/	/	/	4.4	0.651	10.2
> CCOc1ccc(Cc2noc3c2C(=O)CC(C)(C)C3)cc1OCC
  i	-2.4	-0.1	9.0	3.8	9.4	1.9	-3.4	0.672	9.3
> c1ccc(-c2ccnc3nc(N4CCN(c5ccccc5)CC4)nn23)cc1
  /	/	0.9	-1.6	/	/	/	-5.2	0.733	21.1
> Cc1ccsc1C(=O)N1CCC(CO)(Cc2ccccc2)CC1
  i	1.3	2.2	1.7	-16.2	-16.0	-5.4	-4.8	0.612	/
> O=C(O)c1ccc2c(c1)C(=O)N(c1ccc(OCc3ccccc3)cc1)C2=O
  i	4.9	-0.8	3.7	4.5	-0.6	2.9	0.3	0.665	-1.2
> Nc1nc2c3ccccc3nc(C3CC3)n2n1
  /	/	-0.7	3.1	/	/	/	-0.7	0.712	-13.9
> O=c1nc2n(c3c4c(sc13)CCC4)CCC2
  /	/	2.3	3.0	/	/	/	0.8	0.666	-10.5
> CC(C)CN(C(=O)COC(=O)Cc1c[nH]c2ccccc12)c1c(N)n(Cc2ccccc2)c(=O)[nH]c1=O
  i	0.9	0.0	3.9	11.4	6.4	6.7	0.5	0.607	0.0
> COc1ccccc1CNc1cc(C)ccn1
  i	-0.1	-1.0	1.5	-2.6	2.0	-1.0	-2.6	0.65	-3.2
> O=C(COc1ccc(/C=N/NC(=O)c2ccncc2)cc1)Nc1ccccc1
  i	-2.5	0.2	/	14.6	10.7	-1.3	-5.0	/	-5.6
> CCn1c(=O)ccc2cc([N+](=O)[O-])ccc21
  /	-1.0	0.6	10.8	-0.1	-2.3	1.7	-13.3	0.627	-0.1
> O=C(Nc1c(Cl)cc(Cl)cc1C(=O)NCc1cccnc1)c1ccc(Cl)cc1Cl
  /	/	1.1	3.4	/	/	/	12.2	0.716	/
> CC(C)(C)c1ccc(OCc2ccc(C(=O)N3CCOCC3)o2)cc1
  i	10.7	0.3	-0.2	-19.2	-37.4	-4.5	9.4	0.677	3.7
> Brc1ccc(OCc2nnc3n2CCC3)cc1
  i	-0.8	0.3	3.2	10.9	20.0	-0.1	-1.1	0.69	-3.2
> S=C(NCCN1CCOCC1)Nc1ccc(Cl)cc1
  /	/	-0.2	6.3	/	/	/	-0.9	0.67	-17.0
> Cc1ccc(CC(CC(=O)O)C(=O)NCc2ccccc2)cc1 (centres undefined)
  /	/	0.1	0.0	/	/	/	-4.0	0.688	-3.2
> CC(C)C(NS(=O)(=O)c1ccc2c(c1)C(C)(C)C(=O)N2C)C(=O)NCc1ccc(F)cc1 (centres undefined)
  i	-1.3	-0.2	5.0	1.9	2.2	0.5	-6.1	0.721	-9.8
> O=C(CCC(=O)c1cccs1)OCC(=O)c1ccccc1
  i	-5.3	3.3	/	-2.1	-2.6	1.2	0.5	/	/
> COC(=O)[C@@H](NC(=O)Nc1ccccc1F)C(C)C
  /	/	0.1	5.0	/	/	/	-2.1	0.721	-11.6
> Cc1ccc(C)c(S(=O)(=O)NC(CC(C)C)C(=O)O)c1 (centres undefined)
  /	/	2.9	-1.4	/	/	/	3.8	0.717	-19.2
> O=C(Nc1ccc(F)cc1)C(=O)c1cn(CC(=O)N2CCOCC2)c2ccccc12
  i	-2.4	-0.3	7.4	5.1	10.0	2.2	6.1	0.72	-7.1
> CCS(=O)(=O)N1CCC(C(=O)Oc2ccccc2Br)CC1
  i	-0.7	0.7	2.2	-4.6	-10.1	2.8	-7.2	0.65	-8.1
> CCCc1cc(NC(=O)CCl)n(-c2ccccc2)n1
  i	-9.4	-0.1	4.6	1.2	4.0	-0.1	0.8	0.68	-1.9
> Cn1ccnc1SCC(=O)N(C1CCCCC1)C1CCCCC1
  /	/	0.2	-0.3	/	/	/	12.0	0.72	14.4
> Cc1ccc(-c2onc3ccc(C(=O)O)cc23)cc1
  i	-2.1	-2.1	6.1	3.5	4.8	5.2	-2.1	0.671	-2.8
> Cc1ccccc1NC(=O)c1[nH]cnc1C(=O)NN
  i	-0.6	0.8	-4.9	3.1	-3.2	-3.5	-2.7	0.65	-9.6
> COc1ccc(CN2C(=O)c3cccnc3C2=O)cc1S(=O)(=O)NCc1ccc(C)cc1
  i	-0.2	-0.9	2.7	9.0	17.5	-2.8	-6.8	0.69	-9.9
> Cc1ccc(CC(=O)Nc2nc3ccccc3s2)cc1
  /	/	0.9	0.5	/	/	/	-4.3	0.676	-7.5
> COc1ccccc1-n1nnnc1S(=O)(=O)Cc1ccc(Cl)cc1
  /	/	1.1	0.6	/	/	/	-20.5	0.707	-7.2
> COc1cc(C(=O)Nc2ccc(C)c(S(=O)(=O)N(C)C)c2)ccc1OCC(=O)N1CCOCC1
  i	-19.1	0.8	1.8	-7.2	-1.9	-1.9	-4.2	0.703	-12.4
> CC1=C(C(=O)Nc2cccc(F)c2)C(c2ccsc2)C2=C(CC(C)(C)CC2=O)N1 (centres undefined)
  i	-7.9	0.3	-132.0	-3.9	0.0	2.5	11.0	0.681	-24.3
> Cc1ccc(NC(=O)N2CCCC(c3ccccc3)C2)cc1 (centres undefined)
  i	-0.9	-0.2	6.8	-7.6	-2.9	-2.6	-7.3	0.694	-6.7
